# Compound activity: PubChem, ICCB-Longwood Screening Facility, Harvard Medical School
# Anaer choline gr: blocks anaerobic gram-negative growth on choline; Gram-negative bacterium anaerobic choline minimal medium, absorbance growth; stronger effect = lower value; many inactives read as strong as hits in the columns shown; calls only; actives 0.2% (n = 55,000);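 active = growth z-score on choline under -2 at 7 or 20 h with little or no fall on glycerol, limits in tiers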;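 note: stock transfer was 300 nL into about 50 µL; the organism is E. coli; final concentration not given here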
# Anaer choline gr early: further read-out of Anaer choline gr, marked with its call; z-score; measured here: choline growth z-score, timepoint 1;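 score of optical density at 7 h as mean of two plates; lower means less growth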
# * = called active by the depositor; i = inactive; & = joins results of further samples. Only part of the results is shown; rates above refer to the full screens.
SMILES,Anaer choline gr,Anaer choline gr early
CCOc1cc(C2C3=C(CC(C)(C)CC3=O)Nc3onc(C)c32)ccc1O (stereo unspecified),i,0.72
CC(C)c1cc(C2CCCN2Cc2cccnc2)no1 (stereo unspecified),i,0.36
Clc1ccc2nnc(-c3ccccc3)n2n1,i,-0.52
COC(=O)c1sccc1NC(=O)Cn1cc(-c2nc(-c3ccc(OC)cc3)no2)ccc1=O,i,-1.36
CC(C)Cn1cnc2nc(CSc3ccccc3NC(=O)Nc3ccc(Cl)cc3)cc(=O)n21,i,0.33
CNS(=O)(=O)c1ccc2c(c1)n(C)c(=O)n2C,i,0.31
Cn1nc(C(=O)Nc2cccc(Br)c2)c(Cl)c1C(F)(F)F,i,-0.08
CC(C)OCc1nc2ccccc2n1C,i,-0.37
O=C(Nc1nnc(SCC(=O)N2CCCC2)s1)NC1CCCCC1,i,-2.08
CCCCC(=O)Nc1cnc(N2CCN(c3cc(C)ccc3C)CC2)c(C(=O)O)c1,i,-1.01
O=C(CSc1nc2ccccc2nc1Cc1ccc(F)cc1)N1CCNC1=O,i,0.68
COc1cccc(N2CCN(S(=O)(=O)c3ccc(CN4C(=O)c5cccnc5C4=O)cc3)CC2)c1,i,1.91
COc1ccc(C(=O)NCC(c2ccc3c(c2)CCCN3C)N2CCCC2)cc1 (stereo unspecified),i,1.18
O=C(NCC1CN(c2ccc(N3CCOCC3=O)cc2)C(=O)O1)c1ccc(Cl)s1 (stereo unspecified),i,0.32
O=C(O)c1cc(N2CCN(c3ccccc3Cl)CC2)ccc1NC(=O)C1CC1,i,0.59
C=CCNc1nc(NCc2ccccc2)c2cnn(C)c2n1,i,-3.14
COc1ccc(C2CC(=O)N(c3cccc(OC)c3)C(=O)C2)cc1,i,0.35
CCOC(=O)c1c(C)[nH]c(C)c1S(=O)(=O)N1CCCC(C(=O)Nc2cc(C)nc3ccccc23)C1 (stereo unspecified),i,-0.48
O=C(c1ccc(NC(=O)N2CCCCc3ccccc32)cc1)N1CCN(c2ccccc2)CC1,i,-0.44
C=CCSc1nc2ccccc2c2nc(C)nn12,i,0.98
CC(=O)Nc1c(C(=O)Nc2cccc(C)c2)nnn1-c1ccc(C)cc1,i,-1.68
COc1cc(OC)c(NC(=O)NCC(c2cccnc2)c2c[nH]c3ccccc23)cc1Cl (stereo unspecified),i,1.93
COc1cccc(NC(=O)Cn2ncc3c4ccccc4n(Cc4ccc(C)cc4)c3c2=O)c1,i,0.37
COc1ccc(S(=O)(=O)Nc2nc(CC(=O)NCc3ccccc3)cs2)cc1,i,-1.18
Cc1cc(C)cc(NS(=O)(=O)c2cc(-c3nc(C)cs3)cs2)c1,i,0.94
O=C(COCc1nnc(C(=O)Nc2cccc(F)c2)s1)NCCc1c[nH]c2ccccc12,i,0.51
Cc1cccc(NC(=O)c2cnn3c(C)cc(C)nc23)c1,i,0.07
c1cc(CN2CCCCC2)cc(OCCCNc2nc3ccccc3s2)c1,i,0.43&-0.94
O=c1cc(N2CCOCC2)nc2scc(-c3ccc(Cl)cc3)n12,i,-0.46
Cn1c(=O)c2cc(C(=O)NC3CC3)sc2c2ccccc21,i,-0.26
CCOc1ccccc1C1CC(=O)Nc2nc(N)[nH]c(=O)c21 (stereo unspecified),i,-1.04
Cc1nc(-c2nc3c(s2)CN(C(=O)COc2ccc(Cl)cc2)CC3)cs1,i,2.66
CC(=O)N1CCc2cc(Br)c(S(=O)(=O)N3CCCC3c3c(C)noc3C)cc21 (stereo unspecified),i,-1.26
CCOC(=O)c1cc(S(=O)(=O)N(C)CC(=O)NC2CC2)cn1C,i,-0.65
CC(NC(=O)c1nc(N2CCCC2)c2oc3ccccc3c2n1)c1ccccc1 (stereo unspecified),i,0.7
Cc1ccnc(Nc2nc(-c3ccc(C)c(C)c3)cs2)c1,i,1.3
CCOC(=O)C1CCC(CNC(=O)N2CCCCCC2c2ccc(C)s2)CC1 (stereo unspecified),i,0.83
CC(C)NC(=O)CC1CCN(C(=O)c2cc3ccccc3[nH]2)CC1,i,-0.9
Cc1cc(N2CCN(C)CC2)nc2ccc(NC(=O)Nc3ccccc3)cc12,i,-0.72
CCOCCCNC(=O)c1c(NC(=O)c2nc(SCC)ncc2Cl)sc2c1CCC2,i,0.52
Cc1nc(S(=O)(=O)N(C)CC2(C)CCOCC2)cn1C,i,-0.07
CS(=O)c1[nH]c(-c2ccccc2)nc1S(=O)(=O)c1ccccc1 (stereo unspecified),i,-0.25
COc1ccc(NS(=O)(=O)c2csc(C(N)=O)c2)cc1,i,-1.01
Fc1ccc(C2CCNCC2COc2ccc3c(c2)OCO3)cc1 (stereo unspecified),i,-0.06
CCn1ccc2cc(S(=O)(=O)N3CCCC(C(=O)N4CCCCC4)C3)ccc21 (stereo unspecified),i,-0.01
CN(C)c1nc2ncn3c(=O)n(CC(=O)N4CCN(c5ccccc5)CC4)nc3c2s1,i,-2.26
CCOC(=O)c1cc2n(n1)CC(C)(C(=O)NC1CCCC1)N(c1cc(OC)cc(OC)c1)C2=O (stereo unspecified),i,0.38
CN1CCc2nc(NC(=O)c3ccccc3Cl)sc2C1,i,-2.07
CC1(C(=O)NCc2ccccc2)CCN(C(=O)c2cccc(Cl)c2)CC1,i,-0.51
COc1ccc(C)cc1NC(=O)Cn1c(=O)n(Cc2nc(C)no2)c(=O)c2ccccc21,i,1.14

# Following part.
SMILES,Anaer choline gr,Anaer choline gr early
CCCN1C(=O)c2c(C(=O)NCc3ccccn3)ncn2CC1(C)C(=O)NCCC(C)C (stereo unspecified),i,0.13
Cc1ccc2c(c1)sc1nc(C)c(S(=O)(=O)Nc3cccc(C)c3C)c(=O)n12,i,0.83
CSc1nnc(-c2nn(C)c3c2CN(C(=O)C2CCCC2)CC3)n1C,i,-0.81
C=CCOc1ccccc1C1CC(=O)Nc2c1cnn2-c1nc2ccccc2s1 (stereo unspecified),i,0.53
O=C1COc2ccc(NC(=O)c3ccccc3Br)cc2N1,i,-0.07
O=C(Cn1nc2n(Cc3cccs3)c(=O)c3sccc3n2c1=O)NCc1ccco1,i,0.59
Cc1cncc(CN2CCC(=C3c4ccc(Cl)cc4CCc4cccnc43)CC2)c1,i,0.32
O=C(Nc1cccc(Cl)c1)N1CCN(Cc2cc(=O)n3nc(-c4ccccc4)sc3n2)CC1,i,0.57
Cc1ccc2nc(C(=O)O)cc(Nc3ccc(N(C)C)cc3)c2c1,i,0.34
Cc1ccc(NCc2nc3nc4c(c(=O)n3[nH]2)CCC4)c(C)c1,i,-0.04
CN(CCc1noc(C2CCCCC2)n1)S(=O)(=O)c1cccc2nsnc12,i,0.44
CCCCNC(=O)CN1C(=O)C(C)CSc2ccc(S(=O)(=O)N3CCCC3)cc21 (stereo unspecified),i,1.03
O=C(O)c1cc(NS(=O)(=O)c2cc(F)ccc2F)cnc1N1CCC(N2CCCCC2)CC1,i,-0.07
Cc1nc2ncccc2c(=O)n1-c1cccc(NC(=O)c2ccc(Br)cc2)c1,i,-1.02
CNC(=O)C1CCN(c2ccc(Cl)cc2)C1=O (stereo unspecified),i,-1.24
CN(C)c1ccc(-c2noc(-c3cccc(Br)c3)n2)cc1,i,1.74
Cc1noc2c1C(c1ccc(O)cc1)C1=C(CC(c3ccccc3O)CC1=O)N2 (stereo unspecified),i,-1.43
Cc1cc(N2CCN(c3ccccc3)CC2)n2ncc(-c3ccc(F)cc3)c2n1,i,-1.85
CC1(C)CC(=O)C2=C(C1)Nc1ccccc1N(C(=O)NC1CCCC1)C2c1ccccc1 (stereo unspecified),i,-1.3
O=C(Cn1cc(S(=O)(=O)Cc2cccc(Cl)c2)c2ccccc21)NCC1CCCO1 (stereo unspecified),i,0.45
COc1ccc(C(=O)NC2=C(C(=O)c3ccccc3)N(Cc3ccccc3)S(=O)(=O)c3ccccc32)cc1,i,0.3
Cc1ccc(-c2noc3ncnc(NCCN(C)C4CCCCC4)c23)cc1,i,-1.19
CCCCn1nc2ccc(S(=O)(=O)N3CCSCC3)cn2c1=O,i,-0.12
O=C(O)C1CC(=O)N(Cc2ccc3c(c2)OCO3)C1 (stereo unspecified),i,-0.26
CCCc1nc2nc(C)cc(Nc3ccc(Br)cc3F)n2n1,i,-0.57
COC(=O)c1ccccc1NC(=O)N1CCC(c2nc(-c3ccccc3)no2)CC1,i,-0.58
Cc1cc(=O)[nH]c(-n2nc(C)cc2NC(=O)c2ccccc2Br)n1,i,0.56
COc1cc(=O)n(-c2ccccc2)nc1C(=O)NC1CCCC1,i,-0.39
O=C(C1CCN(c2cnc(N3CCCCCC3)nc2)CC1)N1CCCCC1,i,0.42
C/C=C(/C(=C/C)c1ccc(O)cc1)c1ccc(O)cc1,i,0.25
COc1ccc(NC(=O)C2CCN(C(=O)c3cccn3-c3cccnc3)CC2)cc1,i,-0.37
O=C(c1ccccc1F)n1c(=O)oc2ccccc21,i,0.23
O=S(=O)(Nc1ccccc1-c1ccc2ccccc2n1)c1ccccc1F,i,1.85
O=C(Nc1ccccc1F)c1ccc(S(=O)(=O)c2ccc(Br)cc2)nc1,i,-0.52
COc1ccc(C2c3cccn3CCN2S(=O)(=O)c2ccc(OC)cc2)cc1 (stereo unspecified),i,0.46
Cn1c(=O)c2c(nc(Sc3nnc(NC(=O)c4ccccc4Br)s3)n2C)n(C)c1=O,i,1.32
CCOc1cc(C2Nc3ccc(C)cc3[C@H]3OCC[C@@H]23)cc(Br)c1OC (stereo partly specified),i,-1.03
Cc1csc(-c2cc(S(=O)(=O)Nc3ccc(F)cc3)cn2CC(=O)N2CCCC2)n1,i,1.54
CCOC(=O)c1cc(S(=O)(=O)N2CCCC2C(=O)NC2CCC(C)CC2)cn1C (stereo unspecified),i,-0.27
O=c1ccc(-c2ccc3c(c2)OCO3)nn1CCc1nc(-c2ccccn2)no1,i,-0.34
CCN(CCNc1cc(C)nc2c(-c3ccccc3OC)c(C)nn12)c1ccccc1,i,1.26
CC(C)CCSc1c(C(C)C)cnc2c1c(=O)n(C)c(=O)n2C,i,0.09
O=c1c2ccccc2[nH]c(=S)n1CCN1CCOCC1,i,-2.89
CCC(O)c1nc2ccccc2n1CC(=O)N(C)c1ccccc1 (stereo unspecified),i,0.23
O=C(CCc1nc2sc3c(c2c(=O)[nH]1)CCCCC3)N1CCN(c2ccc(Cl)cc2)CC1,i,1.22
COc1ccc(-c2noc(CCCn3c(=O)[nH]c4cc5c(cc4c3=O)OCO5)n2)c(OC)c1,i,-0.67
Cc1csc(-c2csc(S(=O)(=O)NCc3cccs3)c2)n1,i,-0.37
Clc1cccc(-c2nnc(-c3nc(N4CCOCC4)c4ccccc4n3)o2)c1,i,-0.72
O=C(Cc1csc(NC(=O)c2ccccc2)n1)NC1CCCC1,i,-0.11
COc1ccc(C)cc1N1C(=O)Cn2cccc2C1C(=O)NC1CCC(C)CC1 (stereo unspecified),i,-0.14

# (next part)
SMILES,Anaer choline gr,Anaer choline gr early
O=S(=O)(c1ccc(F)cc1)c1nc(-c2ccc(F)cc2)oc1NCc1ccco1,i,1.26
O=C(NCc1cccc(Cl)c1)c1ccc(NC(=O)N2CCCCc3ccccc32)cc1,i,0.51
Cn1c(=O)c(=O)n(C)c2cc(Oc3ccccc3)c(NS(=O)(=O)c3ccc(C(C)(C)C)cc3)cc21,i,0.24
O=C(Nc1ccccc1Cl)c1nc(Nc2ccccc2)c2ccccc2n1,i,2.03
O=C(CN1C(=O)COc2ccc(C(=O)N3CCCC3)cc21)NCCC1=CCCCC1,i,-0.43
OCCNCCCOc1cccc(Cl)c1Cl,i,0.44
COCCCNC(=O)Nc1ncc(-c2ccccc2)n1C,i,-0.25
CCCCOc1ccc(-c2cc3c(N4CCN(C)CC4)nccn3n2)cc1,i,-6.92
O=C(CCCc1nc2cccnc2n1Cc1ccccc1)N1CCCC1,i,-0.47
COc1ccc(NC(=O)N2CCCN(C(=O)c3nonc3N)CC2)cc1,i,-0.02
O=C(Cn1c(=O)c(C(F)(F)F)nc2ccccc21)NCc1ccc(Cl)cc1,i,0.98
O=C(Nc1ccc(-c2ccc3ccccc3n2)cc1)C1CCCCC1,i,0.47
CCOC(=O)c1sc(NC(=O)c2cc(=O)c3cc(Cl)ccc3o2)c(C(=O)OCC)c1C,i,0.05
COC(=O)C1=C(c2ccccc2)c2ccccc2S(=O)(=O)N1CC(=O)Nc1ccccc1C,i,0.19

# Grouped by structure, the compounds so far with two or more sulfur atoms
SMILES,Anaer choline gr,Anaer choline gr early
O=C(Nc1nnc(SCC(=O)N2CCCC2)s1)NC1CCCCC1,i,-2.08
COc1ccc(S(=O)(=O)Nc2nc(CC(=O)NCc3ccccc3)cs2)cc1,i,-1.18
Cc1cc(C)cc(NS(=O)(=O)c2cc(-c3nc(C)cs3)cs2)c1,i,0.94
Cc1nc(-c2nc3c(s2)CN(C(=O)COc2ccc(Cl)cc2)CC3)cs1,i,2.66
CCOCCCNC(=O)c1c(NC(=O)c2nc(SCC)ncc2Cl)sc2c1CCC2,i,0.52
CS(=O)c1[nH]c(-c2ccccc2)nc1S(=O)(=O)c1ccccc1 (stereo unspecified),i,-0.25
COc1ccc(NS(=O)(=O)c2csc(C(N)=O)c2)cc1,i,-1.01
Cc1ccc2c(c1)sc1nc(C)c(S(=O)(=O)Nc3cccc(C)c3C)c(=O)n12,i,0.83
O=C(Cn1nc2n(Cc3cccs3)c(=O)c3sccc3n2c1=O)NCc1ccco1,i,0.59
CN(CCc1noc(C2CCCCC2)n1)S(=O)(=O)c1cccc2nsnc12,i,0.44
CCCCNC(=O)CN1C(=O)C(C)CSc2ccc(S(=O)(=O)N3CCCC3)cc21 (stereo unspecified),i,1.03
CCCCn1nc2ccc(S(=O)(=O)N3CCSCC3)cn2c1=O,i,-0.12
Cn1c(=O)c2c(nc(Sc3nnc(NC(=O)c4ccccc4Br)s3)n2C)n(C)c1=O,i,1.32
Cc1csc(-c2cc(S(=O)(=O)Nc3ccc(F)cc3)cn2CC(=O)N2CCCC2)n1,i,1.54
Cc1csc(-c2csc(S(=O)(=O)NCc3cccs3)c2)n1,i,-0.37
